Assay outcomes (PubChem BioAssay)
A1 inh = inhibitors of the anti-apoptotic protein A1, read as caspase activation; MEF A1-2A-BIM cells, Caspase-Glo 3/7 luminescence, 3 h; percent of clofoctol response, vehicle zero; caspase activation, % (test concentration not listed); actives 0.066% (n = 330,000); AID 2462;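 active = over half of replicate activation scores above 10%, or exactly half above 10 with the replicate mean above 10; inconclusive = replicate mean below 10 yet half the replicates above 10; inactive = over half of replicates below 10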;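 note: wells of about 30 µL received 50 nL stock; many hits fall short of the cut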
Beta cell apopt = blocks beta cell apoptosis. protection from apoptosis, % (no concentration beside the values). actives 0.8% (n = 300,000). INS-1E cytokine-induced death, ATP luminescence, 48 h; percent of positive-control rescue, neutral wells zero;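 active = all replicates at 75% or more, or half of them and the mean; inconclusive = half reach 75% but not the mean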;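 note: 0% = cytokine-treated negative control wells and 100% = positive control rescue; higher means more ATP so stronger rescue from cytokine killing; wells of about 40 µL received 100 nL stock; the first replicate is given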
Calb FLC = affects C. albicans growth with fluconazole; C. albicans CaCi-2 (fluconazole-resistant clinical isolate) + fluconazole, Alamar Blue growth, 48 h; growth inhibition, % (test concentration not listed); actives 0.57% (n = 300,000); AID 1979;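 active = most replicates above 75%; inconclusive = exactly half above 75%; inactive = most below 75%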;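 note: all wells also contain fluconazole at 8 µg/ml as a sub-toxic cotreatment; 0% = median of DMSO wells and 100% = median of geldanamycin control wells; wells of about 8 µL received 7.5 nL stock; the first replicate is given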
T cruzi repl = blocks replication of Trypanosoma cruzi | T. cruzi beta-gal in NIH3T3, luminescence, 90 h | inhibition, % (test concentration not listed) | actives 1.4% (n = 300,000);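 active = mean inhibition across valid replicates above about 55%, limit read from the data; inconclusive = mean below that limit but half or more replicates reach it; inactive = mean below it, under half of replicates reach it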;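 note: signal also drops with host cell toxicity which is not excluded here; 0% = plate median of DMSO wells and 100% = zero luminescence signal; higher percent means less beta-gal luminescence so fewer parasites; stock transfer was 50 nL into about 50 µL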
UCH37 DUB inh = inhibitors of human deubiquitinating enzyme UCH37. Q9Y5K5. purified proteasome/UCH37, Ub-AMC cleavage fluorescence. inhibition, % (concentration not given with the values). actives 0.33% (n = 330,000). AID 588478;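 active = mean of two replicates above 20%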;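 note: 0% = compound-free wells with enzyme and 100% = wells lacking proteasome; stock transfer was 100 nL into about 20 µL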
Target sequence (Q9Y5K5 whole entry, looked up): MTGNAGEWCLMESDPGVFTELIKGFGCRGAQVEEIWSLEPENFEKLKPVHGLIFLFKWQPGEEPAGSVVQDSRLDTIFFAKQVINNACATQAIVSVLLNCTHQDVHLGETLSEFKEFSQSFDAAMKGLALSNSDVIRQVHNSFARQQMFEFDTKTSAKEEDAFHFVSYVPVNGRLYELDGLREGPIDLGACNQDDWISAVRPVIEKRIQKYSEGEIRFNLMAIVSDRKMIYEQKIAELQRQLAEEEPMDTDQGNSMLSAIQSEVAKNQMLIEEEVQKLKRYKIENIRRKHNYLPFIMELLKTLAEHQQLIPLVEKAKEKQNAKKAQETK
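Material: Human UCH37 enzyme supplied as purified proteasome complex | Schedule: 30 min compound-proteasome preincubation then 25 min substrate reaction, room temperature | Detection: AMC fluorescence from Ub-AMC cleavage, excitation 355 nm, emission 460 nm | Benchmarks: Wells without proteasome as full block, compound-free enzyme plus substrate as uninhibited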
RanGTP-Impb inh = inhibitors of RanGTP-importin-beta interaction, primary screen, biochemical, FRET, CFP-Ran, YFP-importin-beta, homogeneous | cell-free CFP-Ran/YFP-importin-beta FRET ratio | inhibition, % (concentration not given with the values) | actives 1.1% (n = 300,000) | AID 2216;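 active = most replicates above 15%; inconclusive = exactly half above 15%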;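 note: 0% = DMSO wells and 100% = Ran loaded with GDP instead of GTP; wells of about 40 µL received 100 nL stock; the first replicate is given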
Beta2AR agonist = activates human beta-2 adrenergic receptor causing internalization; AID 504454; actives 0.43% (n = 340,000); Am2.2-beta2AR cells, FAP receptor internalization, flow cytometry; reference of the scale not given here; response, % (no concentration beside the values);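 active = response above a set limit, near 3 SD of response in nonfluorescent compounds, cut at about 42% in these data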;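 note: stock transfer was 100 nL into about 11 µL; a reference agonist was the positive control; negative values mostly stem from fluorescent compounds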
Target sequence (P07550 whole entry, looked up): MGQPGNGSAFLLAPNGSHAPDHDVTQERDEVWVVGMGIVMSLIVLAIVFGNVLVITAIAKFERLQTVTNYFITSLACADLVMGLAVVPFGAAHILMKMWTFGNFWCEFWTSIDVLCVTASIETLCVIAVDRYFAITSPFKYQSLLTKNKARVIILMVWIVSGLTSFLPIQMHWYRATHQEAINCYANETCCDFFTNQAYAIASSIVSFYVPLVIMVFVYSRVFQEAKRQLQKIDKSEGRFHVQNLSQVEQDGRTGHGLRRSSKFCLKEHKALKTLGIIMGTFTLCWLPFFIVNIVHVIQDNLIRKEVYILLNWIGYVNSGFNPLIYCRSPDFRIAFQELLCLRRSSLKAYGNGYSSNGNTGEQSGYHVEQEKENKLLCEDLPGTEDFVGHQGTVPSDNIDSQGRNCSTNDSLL
LANA-H2B inh = blocks KSHV LANA binding to histone H2A/H2B; Q9QR71; cell-free LANA-H2A/H2B peptide, fluorescence polarization; inhibition, % (no concentration beside the values); actives 0.6% (n = 320,000); AID 2629; in the data active = inhibition mostly above about 10%, no sharp cut-off; inactive = mostly below about 6.7%;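 note: stock transfer was 7.5 nL into about 10 µL; 0% = median of vehicle wells and 100% = median of positive control wells; one replicate is shown; the record names a cut of 25% in any replicate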
Starred values were filed as active, the others as inactive; u = inconclusive; x = not tested or not shown.

nr	compound	A1 inh	Beta cell apopt	Calb FLC	T cruzi repl	UCH37 DUB inh	RanGTP-Impb inh	Beta2AR agonist	LANA-H2B inh
1	CC(C)CCn1c(=O)c(C(=O)N/N=C/c2cccc(F)c2)c(O)c2ccccc21	0.8	1	-9	9	x	-1.5	0	0.7
2	Cc1ccc(S(=O)(=O)Nc2cccc(-n3cnnn3)c2)cc1	1.8	-4	2	-23	-1.4	-4.3	-8	-6.9
3	CCOC(=O)C(=CNCC(=O)O)C(=O)OCC	-1.2	0	3	4	-0.7	-2.0	18	1.9
4	O=C(CSc1nnc(C2CC2)n1Cc1ccccc1)c1ccc(S(=O)(=O)N2CCOCC2)cc1	0.9	2	29	2	-1.1	0.7	-4	0.4
5	COC(=O)C1NC(=O)N2C(C(=O)OC)C(C)(C)S[C@H]12 (stereo partly specified)	1.2	-6	-5	-24	-0.4	-5.8	5	-1.3
6	CCCOc1ccc(-c2nnc(-c3ccco3)o2)cc1	-13	3	-20	-6	-12	0.2	-2	-0.5
7	Cc1ccc(N=c2c([N+](=O)[O-])nn(-c3ccccc3)n2O)c(C)c1	x	x	-2	53	0.1	-0.4	6	x
8	CN1CCN(c2nc(N3CCN(c4ccccc4)CC3)ncc2F)CC1	-0.5	-1	-2	57*	1.6	-5.2	4	2.1
9	COc1ccc(C(=O)N/N=C2\SCC(=O)N2Cc2ccc3c(c2)OCO3)c(OC)c1	0.9	3	5	15	x	4.3	-5	9.7
10	CC(=O)CSc1nc(-c2cccs2)c(C#N)c(=O)[nH]1	x	x	-5	-7	4.9	2.2	8	x
11	CCOC(=O)c1c(NC(=O)c2ccc(N3C(=O)[C@@H]4[C@H](C3=O)[C@H]3C=C[C@@H]4C3)cc2)sc2c1CCCC2	0.0	-5	22	33	-127	5.2	5	6.2
12	O=C(NC1CCS(=O)(=O)C1)/C(=C/c1ccco1)NC(=O)c1ccccc1 (stereo unspecified)	-0.1	-5	-5	-2	1.0	-4.0	2	-6.3
13	CCN1C/C(=C/c2ccc(OC)c(O)c2)C(=O)/C(=C/c2ccc(OC)c(O)c2)C1	1.2	97*	52	51	3.3	4.3	5	-5.1
14	O=C(C1CCCN1S(=O)(=O)c1cccc2nsnc12)N1CCN(c2ccccc2)CC1 (stereo unspecified)	-0.4	-3	3	41	3.5	-1.2	-3	4.0
15	COc1cccc(OCc2cc(C(=O)NCc3ccccn3)no2)c1	0.2	-3	-2	3	0.0	5.4	-11	-0.6
16	COc1c(C)cc(S(=O)(=O)NCc2ccccn2)c(C)c1C	-0.1	-8	5	5	0.1	u	0	-1.4
17	Cc1ccc(O)c(-c2cc(-c3ccc(F)cc3)no2)c1	-6.5	x	-8	-13	-2.3	0.7	8	-2.4
18	Cc1ccc(S(=O)(=O)NC(CC(C)C)C(=O)N2CCCC2)cc1 (stereo unspecified)	2.1	x	-3	-2	-0.8	u	2	1.2
19	O=C(NCCc1ccccn1)c1cc(-c2cccc3ccccc23)nc2ccccc12	0.6	11	-15	-3	-1.6	-4.8	3	3.2
20	CCCCC(=O)Nc1ccc(NC(=O)c2ccccc2[N+](=O)[O-])cc1OC	-0.6	2	u	-1	-0.3	-1.2	-1	4.1
21	CCC1CCCCN1C(=O)c1sc2nc(C)nc(N(CC)CC)c2c1C (stereo unspecified)	-0.5	-1	-8	13	2.3	0.5	3	-0.2
22	O=C1c2ccccc2C(=O)N1CCCCCc1nc(-c2ccccc2)no1	-0.5	-2	-6	4	-0.9	-1.9	-1	-1.7
23	COc1ccc(Cc2noc(CN(C)CC3(N4CCOCC4)CCCCC3)n2)cc1OC	0.3	1	9	0	1.4	5.5	13	-9.7
24	C=C1N(CCCCCC(=O)O)C(=O)OC12CCCCC2	0.5	-1	2	-4	0.9	1.6	-4	-2.6
25	Cc1cc(C)n2nc3ccccc3c2n1	-1.0	x	-10	-10	-21	u	5	-2.1
26	COc1ccc(C(=O)NCCc2cc3c(OC)ccc(OC)c3[nH]c2=O)cc1OC	-0.4	1	u	3	3.1	-1.8	4	-1.5
27	Cc1ccc(S(=O)(=O)CCC(=O)OCC(=O)N2CCN(S(=O)(=O)c3ccccc3)CC2)cc1	0.7	4	2	0	3.9	-0.7	-1	-5.2
28	O=C(Nc1ccc(N2CCN(Cc3ccccc3Cl)CC2)cc1)c1cccnc1	0.1	78*	10	17	2.8	-0.3	-4	5.7
29	C/C(=N/NC(=O)c1cccs1)c1ccc(NC(=O)COc2ccc(Cl)cc2Cl)cc1	1.4	2	x	2	x	u	12	0.4
30	CN(C)N1C(=O)CC(N2CCCCC2)C1=O (stereo unspecified)	-0.4	-9	-6	-5	4.3	2.6	5	2.6
31	COc1ccc(Cc2nn3c(-c4ccccc4Br)nnc3s2)cc1	-0.3	2	12	14	0.5	4.5	1	-0.3
32	Cc1nn(C)cc1CN1CCC(CO)(CCOc2ccccc2)CC1	0.6	-1	-5	5	2.8	2.7	-1	3.9
33	CC(Sc1nnc(C2CC2)n1C1CC1)C(=O)Nc1cccc(S(=O)(=O)N2CCOCC2)c1 (stereo unspecified)	-0.7	-3	x	x	-0.6	x	-9	18*
34	Cc1ccc(NC(=O)COC(=O)c2cc(=O)c3ccccc3o2)cc1F	0.0	-2	x	x	1.9	x	-4	1.8
35	COc1ccc(NC2CCCN(C(=O)C3(C)CCCCC3)C2)cc1 (stereo unspecified)	-0.2	2	3	11	1.2	2.1	1	1.4
36	NC(=O)C1(NC(=O)[C@@H]2CC3(CC(c4cccc(NC(=O)c5cc([N+](=O)[O-])cc([N+](=O)[O-])c5)c4)=NO3)CN2C(=O)c2ccccc2)CC1 (stereo partly specified)	-0.6	0	11	-4	0.0	-6.1	-6	8.5
37	Cc1ccc(CSCc2ccc(C(=O)NCC3CCCO3)o2)cc1 (stereo unspecified)	0.2	3	-11	-4	0.4	2.2	2	-0.2
38	CCOC(=O)C1=C(C)NC(C)=C(C(=O)OCC)C1/C=C/c1ccccc1	-0.5	3	12	47	-53	-2.3	-11	-1.1
39	CN1CCC(=O)N(CCOc2ccccc2)CC1	-0.1	-1	14	-11	1.7	2.7	6	3.7
40	Cc1cc(N)n(-c2nc3ccccc3s2)n1	-8.4	14	18	0	-3.7	-4.7	2	-3.9
41	CCN(CC)S(=O)(=O)N1CCC(C(=O)NCC2COc3ccccc3O2)CC1 (stereo unspecified)	0.1	x	1	1	3.1	1.8	3	-3.8
42	CCCc1nnc(NC(=O)CCC(=O)NCc2ccccc2)s1	0.7	-2	-5	-5	2.1	0.2	-1	1.0
43	O=C(COCC(=O)N/N=C/c1ccccc1F)N/N=C/c1ccccc1F	-1.0	-5	-6	3	x	7.7	0	-0.2
44	CC(NC(=O)CCNC(=O)N1CCn2c1nc1ccccc12)c1ccccc1 (stereo unspecified)	-0.1	-1	-2	2	2.8	-1.9	1	3.5
45	COc1ccc(-c2nn(CCC#N)cc2/C=N/O)cc1	-0.7	-4	26	-10	x	-0.4	-2	-3.3
46	O=C(NCCC1=CCCCC1)C1CCN(S(=O)(=O)c2ccccc2)CC1	-0.6	1	0	0	0.5	0.3	0	0.7
47	O=C(NC1CCCCCC1)c1cccs1	-1.2	7	u	-16	3.5	-3.7	4	-0.9
48	Cc1[nH]n(-c2ccccc2)c(=O)c1C=NCCc1ccccc1	0.6	1	-3	4	x	-5.8	-7	-0.6
49	CC(=O)CCc1ccc2oc(C(=O)O)c(C)c2c1	0.4	-1	3	-3	5.3	3.1	-3	1.8
50	COc1ccc2oc(C(=O)N3CCN(S(=O)(=O)c4cccc([N+](=O)[O-])c4)CC3)c(C)c2c1	-0.2	8	-4	34	1.6	u	-4	3.4
51	CC(C)C(NS(=O)(=O)c1cccs1)C(=O)N1CCc2ccccc2C1 (stereo unspecified)	1.3	-7	1	6	3.9	3.5	-5	4.5
52	C=CCn1c(-c2cccc(OC)c2)n[nH]c1=S	-0.3	1	-10	-8	-4.2	-4.0	-1	0.1
53	CCc1ccc(C(=O)Nc2nc(C)cs2)s1	-1.1	-6	1	29	1.4	2.2	0	-3.0
54	CCCc1nc2oc3c(NCCOCCO)ncnc3c2c2c1COC(C)(C)C2	-0.2	x	15	5	-73	2.3	-15	-4.0
55	CN1C(=O)C(C)(C)N(C(=O)c2cccc([N+](=O)[O-])c2)c2ccccc21	2.3	-2	40	-2	3.0	0.4	-2	-2.9
56	CCOC(=O)C1=NN(c2ccccc2)C(c2ccccc2)CC1=O (stereo unspecified)	0.0	-7	-10	-18	9.6	-2.6	4	7.3
57	COc1ccc(-c2nnc(SCC3CCCO3)n2C)cc1 (stereo unspecified)	-0.1	-9	19	-7	-0.6	1.9	-4	-0.3
58	NC(=O)c1ccsc1NC(=O)COC(=O)c1ccc([N+](=O)[O-])o1	0.7	1	x	x	1.1	x	4	-0.8
59	Cc1cc(NC(=O)C2CC(c3cccc(Br)c3)=NO2)no1 (stereo unspecified)	0.0	-3	1	-1	3.0	0.9	-8	-5.3
60	COC(=O)CSc1nc2ccccc2c(=O)n1C	0.3	-3	23	-7	1.0	2.0	15	1.8

Other records
nr	compound	A1 inh	Beta cell apopt	Calb FLC	T cruzi repl	UCH37 DUB inh	RanGTP-Impb inh	Beta2AR agonist	LANA-H2B inh
61	O=C(N/N=C/c1ccco1)c1ccc(NC(=O)c2ccccc2Cl)cc1	0.4	1	-31	-4	x	5.5	0	-2.4
62	COc1cc(C#N)ccc1OCC(=O)Nc1ccc(C)c(S(=O)(=O)N2CCOCC2)c1	-0.1	6	15	0	1.7	-2.3	-2	2.6
63	CC(=O)Nc1ccc(C(=O)COC(=O)C2CCCCC2)c(F)c1	0.3	4	x	x	4.0	x	-5	-1.6
64	O=C(Nc1ccc2c(c1)oc1ccc(S(=O)(=O)N3CCCC3)cc12)C1CC1	0.3	14	-9	35	-7.8	2.4	-9	11
65	CC1CCCC(C)N1C(=O)COC(=O)CNC(=O)C12CC3CC(CC(C3)C1)C2 (stereo unspecified)	-0.2	-3	1	-8	2.9	-0.9	2	-1.4
66	O=C(Nc1cccc(C(=O)O)c1)/C(=C\c1ccco1)NC(=O)c1ccc(Br)o1	0.2	5	0	3	6.8	5.8	11	-3.7
67	Cc1nn(-c2ccccc2)c(C)c1NC(=O)COc1ccc(Cl)cc1Cl	0.2	0	-11	7	4.6	-1.1	-4	3.4
68	NC(=O)[C@H]1CC2(CC(c3cccc(NC(=O)COc4ccc(Cl)cc4)c3)=NO2)CN1C(=O)[C@H]1CCC(=O)N1 (stereo partly specified)	-0.5	-9	-4	-10	-0.6	-0.1	8	0.0
69	O=C(COC(=O)c1cccc(S(=O)(=O)N2CCc3ccccc3C2)c1)NCc1ccco1	0.0	0	-1	-9	-0.7	0.7	-1	-1.8
70	CC(=O)Nc1sc(C)c(C)c1C(=O)OCCOc1ccccc1	-0.5	1	-2	-5	-1.1	u	-3	-2.8
